Screening data: PubChem, National Center for Advancing Translational Sciences (NCATS)
HPGD inh: HPGD (human) dehydrogenase inhibition. 4.3% of 150,000 active. AID 894. Potency, µM, for the others: top-dose activity change, negative = inhibition, hits mostly inhibitors. purified HPGD, NADH fluorescence kinetic, PGE2 substrate. P15428; active = well fitted inhibition curve with a large enough effect (not every such curve was filed as active); inconclusive = small, poorly fitted or top-dose-only effect, or another doubt; inactive = no such curve, though single readings can be large or run the other way;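 note: top concentration of the series not given in the record; plate controls included wells without enzyme; inactives centre near -10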
Target sequence (P15428 whole entry, looked up): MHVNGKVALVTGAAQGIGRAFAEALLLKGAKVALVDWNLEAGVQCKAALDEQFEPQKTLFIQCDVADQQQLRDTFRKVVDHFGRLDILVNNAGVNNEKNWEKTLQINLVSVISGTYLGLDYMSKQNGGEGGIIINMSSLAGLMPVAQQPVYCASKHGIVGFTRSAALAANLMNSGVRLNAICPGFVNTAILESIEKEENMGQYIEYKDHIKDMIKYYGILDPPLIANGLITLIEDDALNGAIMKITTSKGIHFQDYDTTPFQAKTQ
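20 nM HPGD preincubated 15 min at room temperature with compound in 50 mM Tris-HCl pH 8, 0.01% Tween 20. Started with 1 mM NAD+ and 30 uM prostaglandin E2; NADH fluorescence (360/450 nm) read 5 times over 30-s intervals, last minus first.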
Numbers without * were called inactive; ? = inconclusive; & = joins results of further samples. % is set by controls: 0 for no effect and ±100 for the full control effect; potency is the fitted concentration of half-maximal effect. This is a subset, so the mix of outcomes need not match the whole.

Molecule	HPGD inh
CCOc1cc(CNCCCN2CCOCC2)cc(Br)c1OCC(=O)Nc1cccc(C(F)(F)F)c1	1.8%
COC(=O)c1cc(OC)c(OC)cc1NCC(=O)Nc1ccc(OC)c(OC)c1	?
COc1ccc(/C=C2/C(=O)N=C(N)N2C)cc1OC	?
CCCn1nc2cc(C(=O)NCc3ccccc3)ccc2c1OCC	?
Cc1nc2sc(C(c3ccc(F)cc3)N3CCN(C(=O)c4ccco4)CC3)c(O)n2n1 (configuration not stated)	-7.9%
CCC(C)(C)NC(=O)/C=C/c1cnc2ccccc2n1	-19.6%
O=c1c(Cl)c(NCCO)ncn1-c1ccccc1	0.5%
Cc1ccc2c(CN3C(=O)NC4(CCCCC4)C3=O)cc(=O)oc2c1C	-8.0%
Cc1noc(C)c1-c1ccc2ncnc(NC3CC3)c2c1	14.1µM*
COc1ccccc1C(=O)N(Cc1nc(-c2ccc(Cl)cc2)no1)C(C)C	-10.4%
CC(OC(=O)c1cc[n+]([O-])cc1)C(=O)Nc1ccc(Cl)cn1 (configuration not stated)	-6.6%
CCc1ccc(-c2nc(C(N)=O)c3[nH]c(=O)n(-c4ccccc4OC)c3n2)cc1	?
Cc1csc(=S)n1-c1ccccc1	-9.3%
O=C(O/N=C(\c1ccccc1)c1ccccn1)c1ccc(Cl)c(Cl)c1	-24.3%
Cc1ccccc1OCC(=O)N/N=C/c1c(C)nn(-c2ccccc2)c1Cl	0.0%
O=C(NCCC1=CCCCC1)C1CCN(c2nnc(-n3cccc3)s2)CC1	?
COCCOC(=O)C1=C(N)Oc2c(oc(CO)cc2=O)C1c1c(F)cccc1Cl (configuration not stated)	2.3%
CC(=O)/C(=N\Nc1ccccc1)Oc1ccc([N+](=O)[O-])cc1	-31.8%
CCC(=O)Nc1ccc(NC(=O)c2ccccc2Cl)nc1	-9.1%
CCOC(=O)C(C)n1cnc2c(nnn2-c2ccc(OC)cc2)c1=O (configuration not stated)	-20.4%
Cc1ccc(NC(=O)N2CCc3ccccc32)cc1	-8.6%
Cc1ccc2c(c1)C(c1ccccc1)N(C(=O)C(C)C)CC(=O)N2 (configuration not stated)	1.4%
CN(C)CCNC(=O)C(=O)NCC1OCCCN1S(=O)(=O)c1cccs1 (configuration not stated)	-10.1%
CC(=O)Nc1ccc(S(=O)(=O)N(C)CC(=O)OCC(=O)Nc2cccnc2Cl)cc1	-4.0%
CC1CCCCN1C(=O)CSc1nc(C2CC2)nc2c1cnn2-c1ccccc1 (configuration not stated)	?

Additional compounds follow.
Molecule	HPGD inh
COc1cccc2c1C(=O)CC2NC(=O)C(F)(F)F (configuration not stated)	-12.1%
Nc1ccc2nc(-c3ccccc3)[nH]c2c1	?
NC(=O)c1c(-c2cccs2)csc1N	?
CCn1c(=O)c2c3c(sc2n2c(=S)[nH]nc12)CCC3	-10.1%
Cc1cc(=O)n(C)c(=O)n1CCCCOc1cccc([N+](=O)[O-])c1	-7.2%
O=c1[nH]c(=O)n(Cc2ccccc2)c2nc(-c3ccco3)cc(C(F)(F)F)c12	?
COc1cc(OC)cc(C(=O)NC(=S)Nc2cc3oc4ccccc4c3cc2OC)c1	-11.9%
CCCCn1cnc2c([nH]c3ccccc32)c1=O	?
CCOC(=O)c1c(C)oc(/N=C/c2ccccc2O)c1C#N	-4.0%
O=S(=O)(NCCc1ccncc1)c1ccc(Br)cc1	-8.9%
Cn1c(-c2ccc3c(c2)OCO3)c(C(=O)O)c(=O)c2ccccc21	-19.6%
Cc1nc(-c2cccc(S(=O)(=O)N3CC(C)CC(C)C3)c2)cs1 (configuration not stated)	-14.8%
NS(=O)(=O)c1cccc2cccnc12	-12.4%
Cc1ccc(-c2nnn(CC(=O)N(Cc3ccc(F)cc3)C(C(=O)NC3CCCC3)c3ccncc3)n2)o1 (configuration not stated)	-11.6%
Cc1ccc(NC2=NCC(=O)N2c2ccc3c(c2)OCCO3)c(C)c1	-7.3%
CC(C)CCn1nnnc1C(c1ccc(F)cc1)N1CCC(C(N)=O)CC1 (configuration not stated)	-0.8%
Cc1nc(-c2cccnc2)sc1C(=O)Nc1cccc(C(F)(F)F)c1	-11.2%
O=C(NC1CC2CCC1C2)C1CCN(S(=O)(=O)c2ccc(-c3nn[nH]n3)cc2)CC1 (configuration not stated)	-19.8%
CC1(C)CC(=O)C2=C(C1)N(Cc1cccnc1)C(=O)C2(NC(=O)c1ccc(F)cc1)C(F)(F)F (configuration not stated)	-14.0%
CC1CCN(CCCNC(=O)COc2cc(=O)n(C)c3ccccc23)CC1	-5.2%
CCCCC1=CC2=CC(=O)C(C)(OC(=O)c3ccc(Cl)nc3)C(=O)C2=CO1 (configuration not stated)	-3.8%
COc1ccc(OC)c(C2C(C(=O)Nc3nc4ccccc4s3)=C(C)NC3=C2C(=O)CCC3)c1 (configuration not stated)	?
CN1CCc2cc3c(cc2[C@@H]1[C@@H]1C(=O)Oc2c1ccc1c2OCO1)OCO3	-6.8%
C=CCn1c(SCC(=O)N2CCc3ccccc3C2)nc2sc(C)c(C)c2c1=O	-9.3%
O=C(Nc1ccc(N2CCOCC2)c(C(=O)O)c1)c1ccco1	-6.5%

Next part:
Molecule	HPGD inh
COC(=O)c1ccccc1NC(=O)c1cc2sccc2n1C	-20.0%
CCCCC(CC)COC(=O)CCCCC(=O)OCC(CC)CCCC (configuration not stated)	-4.1%
O=C(Cn1cc(C(F)(F)F)ccc1=O)N1CCN(S(=O)(=O)c2ccc(Cl)cc2)CC1	-5.4%
Cc1ccc(/C=N/NC(=O)c2sccc2OCc2ccc(F)cc2)cc1	31.6µM*
CC1CCc2sc(C(=O)N/N=C/C3CCCCC3)cc2C1 (configuration not stated)	-8.0%
CCOC(=O)C(=O)NC12CC3CC(CC(C3)C1)C2	1.0%
CCN(CC)CCCNC(=O)C1c2ccccc2Oc2ccccc21	-13.1%
CCCCN(C)C(=O)c1ccc(S(=O)(=O)N2CCOCC2)cc1	-1.2%
OCC1CCCN1C(=S)Nc1ccccc1 (configuration not stated)	-7.5%
CN1/C(=C\C(=O)c2ccco2)c2ccccc2CC1(C)C	-19.3%
O=C(NCC(=O)N(Cc1cccs1)C(C(=O)NC1CCCCC1)c1ccncc1)c1ccco1 (configuration not stated)	-7.0%
CC(C)(C)C1=C(C#N)C(c2cccnc2)C(C#N)=C(N)O1 (configuration not stated)	-10.1%
O=C(Nc1ccccc1)N1CCC(n2c(=O)[nH]c3ccccc32)CC1	-0.4%
COc1ccc(-c2nc3c(Br)c(N)c(Br)cc3o2)cc1	?
COc1ccc(C2CC(c3cccs3)=NN2C(=O)CSc2nc3ccccc3o2)cc1 (configuration not stated)	?
CCC1CCCCN1S(=O)(=O)c1ccc(S(=O)(=O)N(Cc2cccs2)C2CC2)cc1 (configuration not stated)	-7.6%
Cc1cc(=O)n2c3c(sc2n1)C(=O)N(Cc1ccccc1)C3=O	?
O=C(CN1C(=O)C2CCc3[nH]c4ccccc4c3C2C1=O)N1CCCC1 (configuration not stated)	-4.4%
O=C(COC(=O)Cc1ccsc1)NCc1ccc(Cl)cc1	28.2µM*
COC(C)(C)c1cc(C(C)(C)C)nc(N)n1	-14.4%
COc1ccccc1CC(=O)NCc1ccc2c(c1)OCO2	14.1µM*
COc1ccccc1OCCNC(=O)c1ccc(S(=O)(=O)N(C)C)cc1	-9.6%
COc1ccc(CCNC(=O)CN(C)S(=O)(=O)c2ccc3c(c2)CCC(=O)N3)cc1OC	6.1%
CN(Cc1nc(-c2cccnc2)no1)S(=O)(=O)c1ccc(Br)cc1	?
CCOc1ccc2cc(S(=O)(=O)N3CCN(C)CC3)ccc2c1	-13.8%

Grouped by structure: the compounds so far containing a tert-butyl group.
Molecule	HPGD inh
CC(C)(C)C1=C(C#N)C(c2cccnc2)C(C#N)=C(N)O1 (configuration not stated)	-10.1%
COC(C)(C)c1cc(C(C)(C)C)nc(N)n1	-14.4%

Filtered by structure: the entries above with a COOH group.
Molecule	HPGD inh
Cn1c(-c2ccc3c(c2)OCO3)c(C(=O)O)c(=O)c2ccccc21	-19.6%
O=C(Nc1ccc(N2CCOCC2)c(C(=O)O)c1)c1ccco1	-6.5%

Back to the main list; the three compounds before the break are reprinted first.
Molecule	HPGD inh
COc1ccc(CCNC(=O)CN(C)S(=O)(=O)c2ccc3c(c2)CCC(=O)N3)cc1OC	6.1%
CN(Cc1nc(-c2cccnc2)no1)S(=O)(=O)c1ccc(Br)cc1	?
CCOc1ccc2cc(S(=O)(=O)N3CCN(C)CC3)ccc2c1	-13.8%
Cc1nn(Cc2ccc(C(=O)N3N=C(C(F)F)CC3(O)C(F)F)o2)c(C)c1[N+](=O)[O-] (configuration not stated)	-2.0%
CCOC(=O)C1=C[C@@]2(CC)CCCN3CCc4c(n1c1ccccc41)[C@H]32	-11.4%&-7.2%
Cc1cc(S(=O)(=O)NCc2cccs2)ccc1-n1cnnn1	0.2%
Cc1cccc(CNc2nc(-c3ccoc3)nc3ccccc23)c1	-6.5%
CCNC(=S)N/N=C/c1cn(Cc2ccc(F)cc2)c2ccccc12	-13.5%
O=C(CCCCCn1c(=S)[nH]c2ccccc2c1=O)NCc1ccc2c(c1)OCO2	0.9%
COc1ccc(N2CCN(C(=O)CCCOc3cc(=O)n(C)c4ccccc34)CC2)cc1	-1.6%
COC(=O)c1ccc2c(=O)[nH]c(CSc3nc(-c4ccc(F)cc4)cs3)nc2c1	-4.3%
Cc1occc1C(=O)N=Nc1c(O)n(C)c2ccccc12	-0.9%
COc1cccc(/C=C/C(=O)NCCc2ccc3c(c2)OCCO3)c1	?
CC(=O)Oc1ccc(N(C(C)=O)S(=O)(=O)c2cccs2)cc1	-12.7%
O=C(c1csnn1)N1CCC[C@@]2(CCN(c3cccc(-c4ccccc4)c3)C2)C1	-10.6%
COC(=O)N[C@@H](c1cccc(C)c1)C(C(C)=O)C(=O)OC (some centres not stated)	-10.9%
Cc1ccc(CN2CCN(c3ccccn3)CC2)s1	-7.7%
S=c1[nH]nc(-c2ccncc2)n1Cc1ccccc1	-8.1%
O=C(/C=C/c1ccco1)Nc1ccccc1N1CCOCC1	-7.4%
CN(C)CCCSc1nc2ccccc2[nH]1	2.4%
Fc1ccc(Cn2nnnc2C(c2cccs2)N2CCCCCC2)cc1 (configuration not stated)	-11.2%
O=C(O)C1CC=CCC1C(=O)Nc1ccc2c(c1)OCCO2 (configuration not stated)	-8.6%
O=C(O)C1C2C=CC(C2)C1C(=O)NCc1ccc2c(c1)OCO2 (configuration not stated)	-14.6%
Cc1cc(N2C(=O)C3C4C=CC(C4)C3C2=O)ccc1NC(=O)c1cccs1 (configuration not stated)	-7.9%
NC1=NC(=Nc2ccccc2)c2ccccc21	-10.8%
O=C(CCCOc1ccc(Cl)cc1)N1CCCCCC1	2.24µM*
COc1nc(NCCC2=CCCCC2)nc(OC)n1	-6.0%
Cn1ccnc1SCC(=O)Nc1sccc1C#N	-15.0%

Next section
Molecule	HPGD inh
CCCn1c(SCC(=O)Nc2nccs2)nnc1-c1cccnc1	-9.9%
O=C(NC1CCS(=O)(=O)C1)c1ccc(-c2ccc(Br)cc2)o1 (configuration not stated)	?
COC(=O)c1c(/N=C/N(C)C)sc2c1CCN(c1ncc(C(F)(F)F)cc1Cl)C2	?
Cc1nc2sc(-c3ccccc3)nn2c(=O)c1Br	-14.8%
CC1CCN(S(=O)(=O)c2ccc(Oc3ccc([N+](=O)[O-])cc3)cc2)CC1	-0.3%
CC(C)CN=c1cc(-c2ccccc2)oc2ccc(Cl)cc12	-15.0%
O=C(Cn1cnc2ccccc2c1=O)N1CCOCC1	-4.2%
CN(Cc1ccccc1)C1CC(=O)N(c2ccc(C(=O)O)cc2)C1=O (configuration not stated)	-6.1%
CCCCOc1ccccc1C(=O)NCCCCCC(=O)O	-4.3%
O=C(CN(C(=O)CCC(=O)Nc1nccs1)c1cccc(F)c1)NCC1CCCO1 (configuration not stated)	-6.9%
COc1ccc(C2C(C(=O)C(C)(C)C)=C(O)C(=O)N2Cc2ccccc2)cc1 (configuration not stated)	-11.2%
Cc1cc(NC(=O)CN2CCCCCCC2)no1	-5.3%
O=[N+]([O-])c1ccc(Cl)c(S(=O)(=O)NCC2CCCO2)c1 (configuration not stated)	0.3%
COc1ccc2c(c1)N(CC[C@H]1CCCCN1C)c1ccccc1S2	-7.9%
O=C(Nc1ccc(Cl)cc1)OCc1ccccn1	-16.9%
CC(NC(=O)Cn1c(=O)oc2cc(S(=O)(=O)N3CCCC3)ccc21)c1ccccc1 (configuration not stated)	-10.1%
c1ccc(Cn2c(SCc3cn4cccnc4n3)nnc2-c2ccco2)cc1	-23.1%
Cc1cc(C(=O)N/N=C/c2cc(Br)ccc2OC(=O)c2ccc(Br)cc2)n[nH]1	-5.6%
COc1ccccc1/C=N/Nc1nncc2ccccc12	-17.1%
Cc1ccc(S(=O)(=O)Oc2ccc(/C=N/NC(=O)c3nn(C)cc3Cl)cc2)cc1	-27.5%
CCOC(=O)C1CCN(S(=O)(=O)C(F)(F)c2nc3ccccc3s2)CC1	-12.2%
COc1ccc2c3c1OC1CC(O)C=C[C@@]31CCN(C)C2 (some centres not stated)	-6.8%
O=C(NCCCN=C1NS(=O)(=O)c2ccccc21)c1ccco1	-2.1%
